# From PubChem BioAssay
# TRPML1 agonist – qHTS for Agonists of the Human Mucolipin Transient Receptor Potential 1 (TRPML1) | activation, % (concentration not given with the values) | 410,000 compounds, 0.12% hits | TRPML1-expressing cells, Ca2+ dye fluorescence, FDSS; host cell line not named in the record; reference of the full effect not given here | AID 624414, 2012; in the data active = activation above about 50%; inconclusive = about 30% to 50%; inactive = below about 30%; also: 0% is about no effect; the text of the record puts the active cut at 80%
# Target sequence (Q9GZU1 whole entry, looked up): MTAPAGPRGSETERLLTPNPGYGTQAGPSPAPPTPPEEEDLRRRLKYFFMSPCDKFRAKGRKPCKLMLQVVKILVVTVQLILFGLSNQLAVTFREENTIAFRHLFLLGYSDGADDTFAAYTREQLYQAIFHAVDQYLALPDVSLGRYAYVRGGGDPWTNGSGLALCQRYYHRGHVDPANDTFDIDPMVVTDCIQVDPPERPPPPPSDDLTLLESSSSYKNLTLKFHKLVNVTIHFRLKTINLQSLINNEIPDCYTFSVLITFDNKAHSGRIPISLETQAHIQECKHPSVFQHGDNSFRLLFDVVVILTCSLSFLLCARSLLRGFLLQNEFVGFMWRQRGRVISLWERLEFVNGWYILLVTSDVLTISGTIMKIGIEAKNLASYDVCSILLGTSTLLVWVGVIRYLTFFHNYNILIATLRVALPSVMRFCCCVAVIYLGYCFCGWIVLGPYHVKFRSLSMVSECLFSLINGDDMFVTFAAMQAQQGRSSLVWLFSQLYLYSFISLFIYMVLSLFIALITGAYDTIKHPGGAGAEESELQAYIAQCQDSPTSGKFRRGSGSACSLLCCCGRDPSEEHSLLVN
#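 TRPML1-DL cells, Tet-induced overnight (~16 h, 37 degrees C), loaded 45-90 min at room temperature with Ca8 no-wash calcium dye plus quencher. FDSS fluorescence: 10 s baseline, compound pin-transfer, 110 s agonist read, then EC80 54-4 (4uM final) and 110 s antagonist read.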
# PINK1 expr mod – A Quantitative High throughput Screen to Identify Chemical Modulators of PINK1 Expression; AID 624263, 2012; 410,000 compounds, 0.2% hits; Potency, µM (top dose mostly 76.6 µM), for inactives: top-dose activation (PINK1 increase), actives largely listed as activators; PINK1 immunofluorescence, high-content cytometry, 24 h; active = well fitted activation curve with a large enough effect; inconclusive = small, poorly fitted or top-dose-only effect; inactive = flat fitted curve, though single readings scatter; cell line not stated here;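 also: potency is read from the fitted curve at half-maximal effect; % of control where 0% means no effect; nearly all actives have a fitted effect of over 65% in size; a mitochondrial uncoupler was the plate control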
#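 Decision-based qHTS: stable cells, 24 h exposure to five compound concentrations, CCCP as control. Fixed cells stained for PINK1 plus nuclear, mitochondrial and cell markers, cytometer read.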
# Six1-Eya2 blk – qHTS Assay for Inhibitors of the Six1/Eya2 Interaction | Homeobox protein SIX1 (Homo sapiens) + Protein phosphatase EYA2 (Homo sapiens), … | AlphaScreen GST-Six1/His-Eya2 binding, biochemical; stronger effect = lower value; control for the full effect not named in the record | activity change, % (concentration not given with the values) | 360,000 compounds, 0.56% hits | AID 651725, 2012; in the data active = activity change below about -65%; inconclusive = about -30% to -65%; inactive = above about -30%; also: % is scaled to controls: 0 for no effect and ±100 for the full control effect
#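 Homogeneous AlphaScreen proximity assay pairing GST-Six1 with His-tagged Eya2 (added as 5X mix: 250 nM and 500 nM) in 50 mM Tris pH 8.0, 300 mM NaCl, 1 mM TCEP. Glutathione donor and nickel acceptor beads; 1 h, 37 °C, dark.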
# TRPML1 blocker – qHTS for Inhibitors of the Human Mucolipin Transient Receptor Potential 1 (TRPML1); Mucolipin-1 (Homo sapiens), Q9GZU1; TRPML1-inducible cells, Ca2+ dye fluorescence, FDSS; stronger effect = lower value; inhibition of EC80 agonist-evoked calcium signal; activity change, negative = inhibition, % (no concentration beside the values); 390,000 compounds, 0.02% hits; in the data active means activity change below about -50%; inconclusive means about -30% to -50%; inactive means above about -30%;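 also: stimulus is agonist 54-4 at its EC80 concentration; % is scaled to controls: 0 for no effect and ±100 for the full control effect; compound concentration not given in the record; the text of the record puts the active cut at -80%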
#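 Tet-induced TRPML1-DL cells loaded with Ca8 no-wash calcium dye were read kinetically on FDSS. Compound addition was followed by EC80 agonist 54-4 (4 uM final); inhibition was read over 110 s.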
# D2 PAM – Beta-Arrestin HTS for Positive Allosteric Modulators of the Human D2 Dopamine Receptor: Potentiators; AID 624464, 2012; potentiation, % (concentration not given with the values); D(2) dopamine receptor (Homo sapiens), P14416; 360,000 compounds, 0.23% hits; DiscoveRx D2 beta-arrestin cells, luminescence, 90 min; 100% = 57 uM dopamine signal; active = potentiation of 50% or more; inconclusive = 30% to 50%; inactive = 30% or less;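 also: tested on top of an EC20 dose of dopamine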
# Target sequence (P14416 whole entry, looked up): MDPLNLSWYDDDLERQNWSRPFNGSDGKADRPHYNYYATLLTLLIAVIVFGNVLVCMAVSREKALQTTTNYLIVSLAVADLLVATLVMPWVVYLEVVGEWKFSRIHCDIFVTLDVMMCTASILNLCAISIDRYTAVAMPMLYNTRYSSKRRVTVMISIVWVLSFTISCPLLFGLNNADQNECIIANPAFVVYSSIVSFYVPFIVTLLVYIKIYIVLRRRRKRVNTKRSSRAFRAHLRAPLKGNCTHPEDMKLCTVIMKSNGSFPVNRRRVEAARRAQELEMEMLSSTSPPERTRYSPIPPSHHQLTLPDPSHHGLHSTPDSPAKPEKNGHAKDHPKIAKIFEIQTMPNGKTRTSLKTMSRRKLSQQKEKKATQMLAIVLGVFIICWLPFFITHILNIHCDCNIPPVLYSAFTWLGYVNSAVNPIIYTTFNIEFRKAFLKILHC
#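 D2 cells co-treated with compound plus 50 nM dopamine (EC20) for 90 min at 37 deg C to detect potentiation. Beta-arrestin recruitment was read as enzyme-fragment luminescence after 1 h at ambient temperature. Full response was set by 57 uM dopamine.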
# D2 agonist – Beta-Arrestin HTS for Positive Allosteric Modulators of the Human D2 Dopamine Receptor: Agonists; D(2) dopamine receptor (Homo sapiens), P14416; DiscoveRx PathHunter D2 beta-arrestin, luminescence, 90 min; 100% = 57 uM dopamine signal; activation, % (concentration not given with the values); 360,000 compounds, 0.084% hits; AID 624465, 2012; in the data active = activation above about 40%; inconclusive = about 15% to 40%; inactive = below about 15%; also: the text of the record calls up to 30% inactive
#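 Agonist mode: compounds alone added to overnight-plated D2 PathHunter cells for 90 min at 37 C, with 57 uM final dopamine (EC100) defining full response. Beta-arrestin recruitment detected by chemiluminescent reagent, read after 1 h at ambient temperature.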
# The depositor's hits bear a star; ? = inconclusive; · = not tested or not shown; & = joins results of further samples; [ ] = another dose, or the depositor's remark.
SMILES,TRPML1 agonist,PINK1 expr mod,Six1-Eya2 blk,TRPML1 blocker,D2 PAM,D2 agonist
COc1ccc(C2C(C(=O)c3cccs3)=C(O)C(=O)N2c2cccc(C)n2)cc1OC (stereo unspecified),1.0,0.6%,0,18,-3,-0.6
CS(=O)(=O)c1ccc(Cl)c(C(=O)Nc2ccc3nc(N4CCOCC4)sc3c2)c1,0.9,0.1%,-2,12,3,2.8
COc1cc(/C=C2\C(=N)N3N=C(S(C)(=O)=O)SC3=NC2=O)ccc1OC(=O)c1cccs1,2.1,1.8%,?,0,-9,-2.9
OCC[C@@H]1C[C@H](O)[C@@H](O)[C@@]2(OCc3ccc(CO)cc32)O1,0.1,-0.1%,-8,·,-2,-2.3
CCN(CC)C(=O)c1cn(-c2cccc(OC)c2)c(=O)c2ccccc12,-0.4,3.1%,7,0,-6,-3.8
Cc1ccc(CCN2CC(C(=O)NC3CCCC3)CC2=O)cc1 (stereo unspecified),0.0,1.0%,10,-6,-1,-2.9
CCCC1C2C(=O)N(c3ccccc3)C(=O)C2ON1c1ccccc1 (stereo unspecified),-0.9,0.2%,7,6,-6,-4.8
Cc1cccc(NC(=O)Cn2c(=O)ccc3cc(S(=O)(=O)N4CCCC4)ccc32)c1C,0.5,-2.4%,·,11,·,·
O=C(CSc1nnc(-c2ccccc2F)o1)N1CCCC1,-0.2,-0.2%,21,6,-2,2.9
O=C(c1ccc2nc(N3CCOCC3)sc2c1)N1CCN(C(=O)c2ccco2)CC1,-0.4,-0.8%,-6,-6,-13,-2.3
O=c1oc(CCCO)cc2ccc(/C=C/c3cccc([N+](=O)[O-])c3)cc12,-0.3,2.9%,-1,-10,-3,-1.1
Cc1cccc(CCN2C(N(C)C)=NC[C@@H]2C)c1,0.2,1.0%,5,-2,-4,-2.3
Cc1ccc2oc(=O)n(Cc3ccccc3Cl)c2c1,4.9,5.0%,·,-7,·,·
Cc1ccc(S(=O)(=O)N2CCCOC2CNC(=O)C(=O)NCc2ccncc2)cc1 (stereo unspecified),1.2,0.1%,0,18,0,0.1
O=C(Nc1nc(-c2ccc(Cl)cc2Cl)cs1)c1ccc(OCC2CCCO2)cc1 (stereo unspecified),0.4,1.9%,6,-8,-8,-1.0
COC(=O)c1ccc2nc(-c3ccc(C)cc3)c(CC3CCCCC3)n2c1,0.3,1.8%,5,3,-11,-9.2
COc1ccc(C)c2sc(N(Cc3cccnc3)C(=O)COc3ccccc3)nc12,2.1,3.3%,·,56,·,·
O=C1NCCCC1C(=O)NCCN1C(=O)CCC1=O (stereo unspecified),0.5,-0.8%,9,-6,-5,-3.0
Cc1c(NC(=O)COC(=O)c2ccccc2Cl)c(=O)n(-c2ccccc2)n1C,-0.3,1.4%,17,11,-3,-0.5
Cc1ccc(CNC(=O)c2cc(-c3ccc(C)cc3)nc3n[nH]c(-c4cccc([N+](=O)[O-])c4)c23)cc1,0.8,3.5%,·,4,·,·
O=C(Nc1c(F)cccc1F)c1cnc(N2CCN(c3ccccn3)CC2)c2ccccc12,0.3,-2.0%,-7,-17,?,-1.0
Oc1c(CN2CCN(c3ccccc3)CC2)cc(Br)c2cccnc12,1.8,2.8%,-19,25,-18,0.9
O=C(O)c1cc(C(=O)C2CC2)c[nH]1,1.1,-0.8%,9,26,-4,-3.0
COc1ccccc1N(CC(O)CN1C(C)CCCC1C)S(=O)(=O)c1ccccc1 (stereo unspecified),-1.5,-1.0%,7,6,-9,-19
CCOc1cccc(NC(=O)C2CC(=O)N(C)C(=Nc3cccc(OC)c3)S2)c1 (stereo unspecified),3.1,-1.1%,·,27,·,·
COC(=O)COc1ccc(S(=O)(=O)Nc2ccccc2C(=O)OC)cc1,0.2,·,6,20,5,-2.5
Cc1ccc(S(=O)(=O)N2[C@@H](c3ccc4c(c3)OCO4)C(C(=O)O)=C[C@H]2C(C)(C)C)cc1,-0.4,-0.2%,-3,4,·,3.5
COc1ccc(C(CC(=O)c2ccccc2)C2CCCCC2=O)cc1 (stereo unspecified),0.3,-1.9%,14,-10,-8,0.4
Cc1cc(C)cc(C(=O)NCCC(=O)NCc2cc(=O)n(C)c(=O)n2C)c1,-0.3,1.0%,1,3,1,-2.0
Cc1cccn2c(=O)c3cc(C(N)=S)c(=N)n(CCCN4CCOCC4)c3nc12,1.1,0.4%,-25,49,-15,-6.6

# Retrieved one by one from above:
SMILES,TRPML1 agonist,PINK1 expr mod,Six1-Eya2 blk,TRPML1 blocker,D2 PAM,D2 agonist
Cc1ccc(S(=O)(=O)N2[C@@H](c3ccc4c(c3)OCO4)C(C(=O)O)=C[C@H]2C(C)(C)C)cc1,-0.4,-0.2%,-3,4,·,3.5
COC(=O)COc1ccc(S(=O)(=O)Nc2ccccc2C(=O)OC)cc1,0.2,·,6,20,5,-2.5

# Other results follow:
SMILES,TRPML1 agonist,PINK1 expr mod,Six1-Eya2 blk,TRPML1 blocker,D2 PAM,D2 agonist
CCOc1ccc(NC(=O)Cn2c(=O)n(Cc3nc(-c4ccccc4)no3)c(=O)c3ccccc32)cc1,-0.1,-0.8%,·,3,·,·
O=C1CN(S(=O)(=O)c2ccc(Cl)cc2)CC(=O)N1CCc1ccccc1,0.0,?,1,-5,-24,-3.4
COc1ccc(Cl)cc1CN1CCN(c2nc(C)cc(C)c2C#N)CC1,-0.7,2.9%,3,-4,-29,-2.7
CCOc1ccc(CCNC(=O)c2ccc(CSCc3ccccc3C)o2)cc1OCC,2.3,-1.1%,·,-10,·,·
O=S(=O)(c1cccc(-c2nc3n(n2)Cc2ccccc2-3)c1)N1CCCC1,-0.5,4.4%[38.3 µM],-7,24,6,-1.9
COc1cccc(CN2C(=O)N(c3ccc(C)cc3)C(=O)C2CC(=O)Nc2cc(OC)cc(OC)c2)c1 (stereo unspecified),0.5,1.2%,·,-10,·,·
Fc1ccc(COc2ccc(Cl)cc2/C=N/Nc2nc(N3CCCC3)nc(N3CCCC3)n2)cc1,1.4,0.5%[38.3 µM],-1,39,-13,-0.4
CC(C)NS(=O)(=O)c1ccc(CCC(=O)N2CCCCC2)cc1,-0.3,0.0%,1,-13,0,1.2
CCCCCN(C(=O)CCC(=O)OCC(=O)c1cccc(OC)c1)c1c(N)n(CCCC)c(=O)[nH]c1=O,-0.3,0.3%,-17,22,-6,1.2
Cc1ccc(-c2cc(C(=O)NCCc3ccccn3)c3ccccc3n2)c(C)c1,1.8,1.2%,7,3,-12,-0.8
COc1ccc(N2CCN(C(=O)c3ccc(CS(=O)(=O)c4ccc(Br)cc4)o3)CC2)cc1,1.4&-0.2,2.4%&3.1%,-4,12&6,-4,1.9
CCCOc1ccc(-c2nc(-c3ccc([N+](=O)[O-])cc3)cs2)cc1,-0.1,0.2%,-1,0,0,-10
COc1ccccc1/C=C/c1onc(C)c1S(=O)(=O)N1CCC(C(=O)NC(C)C)CC1,0.1,2.4%,0,6,-1,1.6
COc1cc(C)ccc1OCC(=O)Nc1nnc(C2CC2)s1,1.9,0.9%,17,1,2,-1.6
Cc1csc(=O)n1CC(=O)OC(C)C(=O)Nc1ccc(F)c(F)c1F (stereo unspecified),-0.7,2.1%,0,39,-9,-5.9
CC(C)(C)OC(=O)C[C@H]1C/C=C\C[C@H](CC(=O)NCCO)C(=O)NC[C@@H](c2ccccc2)OC1=O,0.4,-1.1%,2,-9,-7,-3.8
COc1cc2c(cc1OC)C(COc1ccc(F)cc1)N(C(=O)c1ccco1)CC2 (stereo unspecified),2.5,4.1%[38.3 µM],-11,16,0,0.1
CCN(CC(=O)NCc1cccs1)S(=O)(=O)c1ccc(NC(C)=O)cc1,-0.3,-0.3%,-3,5,-13,-1.9
O=C(NCCC1CCCCN1S(=O)(=O)c1ccccc1)C(=O)NC1CCCC1 (stereo unspecified),-1.3,2.9%,5,-15,-10,-3.0
S=c1[nH]c(-c2ccccc2)cn1/N=C/c1cccnc1,-0.6,?,2,-9,-8,-3.7
O=C(NCc1n[nH]c(=S)n1-c1ccccc1)c1ccc(S(=O)(=O)N2CCOCC2)cc1,0.5,7.9%[38.3 µM],3,36,-12,2.7
CCOC(=O)c1cc(C(=O)NN)c(C)nc1C,0.0,3.3%,10,-3,-3,0.4
Cc1ccc2nc(SCc3cn4cccnc4n3)[nH]c2c1,1.5,2.6%,-1,-21,-9,2.3
COc1ccc(C)cc1S(=O)(=O)NCCc1ccccc1,0.2,5.4%[38.3 µM],-1,5,-6,-1.4
Cc1ccc(NC(=O)COc2ccc(C3SCCS3)cc2)cc1,0.0,2.8%,3,5,2,3.4
Cc1ccc(NS(=O)(=O)c2cc(Br)cc3c2N(C(=O)C2CC2)CC3)cc1C,4.0,2.5%,·,39,·,·
CCOC(=O)c1ccc(NC(=O)CC2S/C(=N/N=C3/NC(=O)CS3)NC2=O)cc1 (stereo unspecified),2.2,1.4%,?,-6,-6,-0.5
Cc1ccc(C(=O)N/C(=C\c2ccccc2)C(=O)NCC2CCCO2)cc1 (stereo unspecified),0.2,0.2%,2,9,-3,-0.8
O=C(CCn1ccnc1)Nc1cc(Cl)ccc1O,0.1,-0.5%,?,7,6,0.4
Cc1ccc2c(c1)cc1c(=O)[nH]ncn12,1.7,-1.5%,-9,9,-16,-3.2
COc1ccc(S(=O)(=O)N2CCc3ccccc32)cc1C(=O)N1CCOCC1,-0.3,1.4%,-4,5,-2,-0.6

# 9 of the compounds above, tab-delimited.
SMILES	TRPML1 agonist	PINK1 expr mod	Six1-Eya2 blk	TRPML1 blocker	D2 PAM	D2 agonist
CC(C)(C)OC(=O)C[C@H]1C/C=C\C[C@H](CC(=O)NCCO)C(=O)NC[C@@H](c2ccccc2)OC1=O	0.4	-1.1%	2	-9	-7	-3.8
COc1cc2c(cc1OC)C(COc1ccc(F)cc1)N(C(=O)c1ccco1)CC2 (stereo unspecified)	2.5	4.1%[38.3 µM]	-11	16	0	0.1
CCN(CC(=O)NCc1cccs1)S(=O)(=O)c1ccc(NC(C)=O)cc1	-0.3	-0.3%	-3	5	-13	-1.9
O=C(NCCC1CCCCN1S(=O)(=O)c1ccccc1)C(=O)NC1CCCC1 (stereo unspecified)	-1.3	2.9%	5	-15	-10	-3.0
S=c1[nH]c(-c2ccccc2)cn1/N=C/c1cccnc1	-0.6	?	2	-9	-8	-3.7
O=C(NCc1n[nH]c(=S)n1-c1ccccc1)c1ccc(S(=O)(=O)N2CCOCC2)cc1	0.5	7.9%[38.3 µM]	3	36	-12	2.7
CCOC(=O)c1cc(C(=O)NN)c(C)nc1C	0.0	3.3%	10	-3	-3	0.4
Cc1ccc2nc(SCc3cn4cccnc4n3)[nH]c2c1	1.5	2.6%	-1	-21	-9	2.3
COc1ccc(C)cc1S(=O)(=O)NCCc1ccccc1	0.2	5.4%[38.3 µM]	-1	5	-6	-1.4
